FGF22 binding = binders of recombinant human FGF22 by thermal shift; Q9HCT0; SYPRO orange fluorescence; percent of sucrose octasulfate shift, DMSO zero; calls only at 9.99 µM; actives 1.5% (n = 340,000);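 active = melting point raised past a set limit in the mean and every replicate; inconclusive = no clear call; three in four hits are not shown here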
Target sequence (Q9HCT0 whole entry, looked up): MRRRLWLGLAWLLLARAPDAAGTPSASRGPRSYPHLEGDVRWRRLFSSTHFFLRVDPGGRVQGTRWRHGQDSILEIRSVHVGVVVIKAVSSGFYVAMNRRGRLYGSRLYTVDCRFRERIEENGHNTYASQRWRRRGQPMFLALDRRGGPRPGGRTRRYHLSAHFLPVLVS
UCH37 inh = human UCH37 deubiquitinating enzyme inhibition; Q9Y5K5; purified proteasome/UCH37, Ub-AMC cleavage fluorescence; inhibition, % (no concentration beside the values); actives 0.33% (n = 330,000);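 active = mean of two replicates above 20%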;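 also: 0% = compound-free wells with enzyme and 100% = wells lacking proteasome; stock transfer was 100 nL into about 20 µL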
Target sequence (Q9Y5K5 whole entry, looked up): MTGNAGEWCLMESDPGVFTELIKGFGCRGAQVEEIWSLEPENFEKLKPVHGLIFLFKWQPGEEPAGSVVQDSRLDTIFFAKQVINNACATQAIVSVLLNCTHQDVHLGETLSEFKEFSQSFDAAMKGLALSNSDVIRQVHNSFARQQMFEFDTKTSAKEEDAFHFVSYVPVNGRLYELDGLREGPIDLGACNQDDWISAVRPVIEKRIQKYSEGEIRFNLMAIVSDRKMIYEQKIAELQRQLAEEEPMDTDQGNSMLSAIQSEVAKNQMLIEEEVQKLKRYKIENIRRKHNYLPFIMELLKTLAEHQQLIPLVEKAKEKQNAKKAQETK
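assay system = human UCH37 enzyme supplied as purified proteasome complex | amount = proteasome at 0.15 nM in the dispensed enzyme solution | schedule = 30 min compound-proteasome preincubation then 25 min substrate reaction, room temperature | measured by = fluorescence, ex 355 nm, em 460 nm | benchmarks = no-proteasome wells (full inhibition) and compound-free wells (no inhibition)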
Bfl-1 A1 inh = inhibitors of the anti-apoptotic protein A1, read as caspase activation. MEF A1-2A-BIM cells, Caspase-Glo 3/7 luminescence, 3 h; percent of clofoctol response, vehicle zero. caspase activation, % (no concentration beside the values). actives 0.066% (n = 330,000);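 active = over half of replicate activation scores above 10%, or exactly half above 10 with the replicate mean above 10; inconclusive = replicate mean below 10 yet half the replicates above 10; inactive = over half of replicates below 10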;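 also: wells of about 30 µL received 50 nL stock; many hits fall short of the cut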
T cruzi inh = blocks replication of Trypanosoma cruzi; T. cruzi beta-gal in NIH3T3, luminescence, 90 h; inhibition, % (concentration not given with the values); actives 1.4% (n = 300,000); AID 1885;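 active = mean inhibition across valid replicates above about 55%, limit read from the data; inconclusive = mean below that limit but half or more replicates reach it; inactive = mean below it, under half of replicates reach it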;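 also: signal also drops with host cell toxicity which is not excluded here; 0% = plate median of DMSO wells and 100% = zero luminescence signal; higher percent means less beta-gal luminescence so fewer parasites; stock transfer was 50 nL into about 50 µL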
AF4-AF9 inh = MLL-AF4/AF9 protein interaction inhibition; AlphaScreen, biotin-AF4 peptide binding to FLAG-AF9; inhibition, % at 10 µM; actives 0.47% (n = 350,000); AID 651704;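 active = every replicate reaching a set inhibition limit, whatever the replicate mean, cut at about 25% in these data; inconclusive = mean inhibition reaches that limit but some replicates miss it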;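 also: 0% = plate neutral control median and 100% = total signal loss; the record names both 10 and 1 µM as test concentration; the first replicate is given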
Target sequence (P42568 whole entry, looked up): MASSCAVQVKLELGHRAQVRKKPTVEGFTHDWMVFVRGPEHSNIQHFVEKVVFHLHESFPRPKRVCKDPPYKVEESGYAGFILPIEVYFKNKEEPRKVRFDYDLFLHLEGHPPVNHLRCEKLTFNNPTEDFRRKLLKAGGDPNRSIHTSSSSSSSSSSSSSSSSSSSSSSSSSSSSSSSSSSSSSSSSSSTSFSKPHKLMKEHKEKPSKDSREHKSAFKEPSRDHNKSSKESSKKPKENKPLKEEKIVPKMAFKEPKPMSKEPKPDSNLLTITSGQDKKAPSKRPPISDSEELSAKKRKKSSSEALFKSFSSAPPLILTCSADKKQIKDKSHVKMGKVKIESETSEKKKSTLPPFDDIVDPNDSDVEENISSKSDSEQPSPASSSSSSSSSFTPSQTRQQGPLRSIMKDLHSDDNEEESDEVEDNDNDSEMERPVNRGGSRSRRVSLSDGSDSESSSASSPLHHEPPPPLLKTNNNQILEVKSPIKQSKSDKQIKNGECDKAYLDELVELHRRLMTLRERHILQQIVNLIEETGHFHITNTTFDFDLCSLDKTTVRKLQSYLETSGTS
rRNA inh HTS = inhibitors of bacterial rRNA selective over humanized ribosomes. E. coli WT GFP vs humanized-ribosome RFP mutants, fluorescence, 24 h; active compounds read low; DMSO median 0, no signal -100. actives 1.6% (n = 350,000). GFP signal change (wild-type ribosome), % (test concentration not listed);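 active = significant combined selectivity score with lowered wild-type GFP, culture density cut under 30%, mutant RFP and density less affected; inactive = any of these conditions unmet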; also: one replicate is shown; some compounds called inactive have numbers as strong as hits
Beta apoptosis = blocks beta cell apoptosis; INS-1E cytokine-induced death, ATP luminescence, 48 h; percent of positive-control rescue, neutral wells zero; protection from apoptosis, % (concentration not given with the values); actives 0.8% (n = 300,000); AID 435005;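 active = all replicates at 75% or more, or half of them and the mean; inconclusive = half reach 75% but not the mean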;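 also: 0% = cytokine-treated negative control wells and 100% = positive control rescue; higher means more ATP so stronger rescue from cytokine killing; wells of about 40 µL received 100 nL stock; the first replicate is given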
E coli growth = inhibitors of Escherichia coli growth | OD600, 23 h; active compounds read low | OD600 absorbance (no concentration beside the values) | actives 0.21% (n = 330,000);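 active = OD600 absorbance below the run mean of sample wells minus 3.6 SD, in any replicate, cut at about 0.56 in these data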;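 also: stock transfer was 300 nL into about 60 µL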
rRNA inh HTS OD600 = further read-out of rRNA inh HTS, marked with its call; OD600 change, %; measured here: OD600 growth;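 optical density of the mix in the first replicate; 0 = DMSO median and -100 = no signal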
rRNA inh HTS RFP = also measured in rRNA inh HTS; calls as there; RFP signal change, %; measured here: RFP humanized mutant strains;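 first replicate; 0 = DMSO median and -100 = no signal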
An asterisk follows results filed as active; i = inactive; ? = inconclusive; . = no result given; + = active, no number. Only part of the results is shown; count on the stated rates, not on these rows.

SMILES | FGF22 binding | UCH37 inh | Bfl-1 A1 inh | T cruzi inh | AF4-AF9 inh | rRNA inh HTS | rRNA inh HTS OD600 | rRNA inh HTS RFP | Beta apoptosis | E coli growth
CCCCn1c(SCC(=O)Nc2cc(C)on2)nnc1-c1cccs1 | i | 3.7 | 0.7 | 5 | 4.7 | -12 | -6 | -4.5 | -20 | 0.68
CCN(c1ccc(NC(=O)COC(=O)c2ccc3ccccc3n2)cc1)C(C)C | . | 0.9 | -1.4 | -5 | . | . | . | . | 2 | 0.72
COC(=O)c1c(-c2ccc(C)cc2)csc1NC(=S)NC(=O)c1ccc(F)cc1 | . | 7.4 | 1.2 | -12 | . | . | . | . | 11 | 0.72
Cc1ccccc1Nc1nc(N)nc(CSc2ccccc2)n1 | i | 0.7 | -0.5 | 5 | -10 | -6 | -6 | 0.7 | -9 | 0.67
Nc1ccc(-n2nncc2-c2ccccc2)cc1 | . | -3.5 | -0.2 | -11 | . | . | . | . | -2 | 0.74
NC(=O)c1oc2ccccc2c1NC(=O)CCc1ccccc1 | i | 4.6 | 0.9 | 0 | 0.7 | 0 | -2 | 2.4 | 0 | 0.71
CCC(=O)Nc1nc2ccc([N+](=O)[O-])cc2s1 | i | 7.3 | -1.8 | 63* | -17 | 11 | 14 | -0.9 | 6 | 0.68
C=CCc1c(N(CC)CC)nc(C)[nH]c1=O | i | 3.3 | 0.0 | -2 | 12 | 6 | 7 | 2.8 | -5 | 0.66
Clc1ccc(-c2cccs2)nn1 | i | 0.3 | 2.0 | -4 | -16 | 8 | 12 | 0.3 | -6 | 0.71
COc1ccc(Br)cc1CNCCSc1nnnn1C | . | -2.1 | 0.9 | -5 | . | . | . | . | -6 | 0.66
CCN(CC)CCCNC(=O)CC1Sc2ccccc2NC1=O (centres undefined) | . | -1.5 | -0.2 | -8 | . | . | . | . | -1 | 0.7
Cn1c(Cc2ccccc2)nnc1SCC(=O)NCCc1ccccc1 | i | 5.1 | 1.4 | 5 | -11 | 6 | 5 | -5.0 | -3 | 0.66
CC1CC(C)CN(C(=O)c2ccc(NS(=O)(=O)c3ccc4[nH]c(=O)[nH]c4c3)cc2)C1 (centres undefined) | i | -2.8 | 0.0 | -18 | -0.9 | 1 | 4 | -2.1 | -4 | 0.66
Cc1ccc(SCCC(=O)N2CCC(C)CC2)cc1 | . | 2.7 | 0.7 | 0 | . | . | . | . | -5 | 0.69
CC(=O)c1cccc(CN2CCC(n3nccc3NC(=O)CCCc3ccccc3)CC2)c1 | i | -2.3 | 0.2 | 5 | -0.4 | 3 | -2 | 0.5 | . | 0.67
CC(=O)NCCc1ccc(S(=O)(=O)NCc2ccc3c(c2)OCO3)cc1 | . | 4.3 | 0.5 | 3 | . | . | . | . | 4 | 0.73
O=C(O)CN1C(=O)/C(=C\c2cccc(OCc3ccccc3F)c2)SC1=S | i | 17 | -0.5 | 2 | 0.0 | -15 | -4 | 6.7 | 2 | 0.68
COc1ccc(S(=O)(=O)N2CCOCC2)cc1NC(=O)CSc1cc(C)ccc1C | i | 4.0 | . | . | 7.0 | -9 | -14 | 5.0 | . | 0.69
CCOC(=O)c1c(CN(C)C)oc2cc(CN(C)C)c(O)c(CSc3ccccc3)c12 | . | 3.0 | 0.6 | -24 | . | . | . | . | -17 | 0.74
CC1CCCCN1C(=O)COC(=O)CSc1ccc(C(N)=O)cc1[N+](=O)[O-] (centres undefined) | i | 8.7 | . | . | -0.6 | -12 | 2 | 2.7 | . | 0.68
CCc1cc(C(=O)N/N=C/c2ccc(O)cc2)c2ccccc2n1 | i | . | 1.4 | -7 | -2.9 | 2 | 0 | -1.6 | -4 | .
CCN(CC)S(=O)(=O)c1ccc(NC(=O)COc2cccc(-n3cnnn3)c2)cc1 | i | 3.1 | 1.0 | . | ? | -4 | -10 | 4.6 | 4 | 0.72
Cc1ccc(-n2nnnc2-c2cnc3cc4c(cc3c2C)OCO4)cc1 | . | -2.5 | -0.4 | 5 | . | . | . | . | 0 | 0.67
C#CCN1C(=O)C(O)(CC(=O)c2cc(OC)ccc2OC)c2ccccc21 (centres undefined) | . | -2.5 | -1.3 | -18 | . | . | . | . | -4 | 0.69
COc1ccc(NC(C#N)c2ccccc2OCc2ccccc2)cc1 (centres undefined) | i | 3.9 | -0.5 | -11 | 2.7 | 4 | 7 | -6.7 | 1 | 0.7
O=C(CS(=O)CC(=O)N(CC(=O)NC1CCCC1)c1ccc2c(c1)OCCO2)Nc1ccc(F)cc1 (centres undefined) | . | -1.0 | 0.4 | 7 | . | . | . | . | -6 | 0.75
COc1cccc(C2=CC(=O)C[C@H](c3ccc(F)cc3)C2)c1OC | i | 2.5 | 0.3 | . | 1.0 | -18 | -28 | -21 | -1 | .
Nc1nonc1-n1nnc(C(=O)N/N=C/c2cccnc2)c1CSc1ccc(Cl)cc1 | + | . | -0.7 | 9 | -3.0 | -31 | -42 | 6.3 | 1 | .
Cc1cc(NC(=O)CS(=O)(=O)c2cn(Cc3ccccc3Cl)c3ccccc23)no1 | . | 2.7 | -1.6 | -10 | . | . | . | . | -1 | 0.65
N=c1c2c(n(Cc3ccccc3)c3c1CCC3)CCC2 | . | 0.3 | 1.7 | 47 | . | . | . | . | 36 | 0.72
O=C(c1cccc(S(=O)(=O)N2CCCCCC2)c1)N1CCN(c2ccccc2F)CC1 | i | 0.6 | -0.7 | 9 | -21 | -3 | -32 | -4.2 | 0 | 0.69
NC(=O)CC1C(=O)N(c2ccccc2)C(=S)N1NC(=O)c1ccc(Br)cc1 (centres undefined) | i | 2.0 | -0.4 | -9 | -4.9 | -4 | -7 | -5.1 | -7 | 0.67
O=c1c(-c2ccc(O)cc2)coc2cc(O)cc(O)c12 | i | 3.4 | -0.1 | -14 | 1.7 | -25 | -30 | -6.4 | . | 0.68
CCOC(=O)C1=C(C)N=C(SC)N(C)C1c1ccccc1 (centres undefined) | . | 2.1 | -0.3 | 9 | . | . | . | . | -6 | 0.67
Nc1nc(NCCO)nc(NCc2ccccc2)c1[N+](=O)[O-] | . | 16 | 0.7 | -19 | . | . | . | . | . | 0.68
CNC(=O)c1[nH]cnc1C(=O)Nc1ccc(OC)cc1 | i | 3.7 | 0.6 | 0 | -0.4 | 4 | 7 | -11 | 2 | 0.7
CCCC[C@@H](CNC)NC[C@H](Cc1ccc(O)cc1)NCCc1ccc(OCC)cc1 | i | -0.7 | -0.1 | 18 | 15 | 7 | 2 | 9.0 | 9 | .
COc1cccc(C2CC(c3ccc(C(C)C)cc3)n3nc(N)nc3N2)c1 (centres undefined) | i | 1.0 | 0.1 | 27 | -1.7 | 3 | -19 | -2.8 | -8 | 0.79
COc1ccc(NC(=O)c2cccc3ccccc23)cc1 | i | . | -0.1 | -13 | -3.1 | 9 | 5 | 0.4 | 3 | .
Clc1ccc(-c2cn3ccccc3n2)cc1 | i | -22 | -7.4 | -22 | 4.8 | -7 | -1 | -4.2 | 9 | 0.67
COc1ccc(NC(=O)CN(C)CC(=O)Nc2sc3c(c2C#N)CCC3)cc1 | i | -1.9 | . | . | -2.1 | -6 | -15 | 6.5 | . | 0.71
CCOC(=O)N1CCN(C(=S)NC(=O)C23CC4CC(CC(C4)C2)C3)CC1 | i | 5.4 | 0.3 | -3 | 1.4 | 3 | 11 | -4.7 | 0 | 0.72
Cc1occc1-c1nnc(SCC(=O)N2CCOCC2)o1 | . | 3.8 | -0.3 | -7 | . | . | . | . | . | 0.71
CC1CCCN(C(=O)c2nn(C)c3c2CS(=O)(=O)c2ccccc2-3)C1 (centres undefined) | i | 2.7 | -1.0 | -2 | -6.2 | 0 | 3 | 1.6 | -6 | 0.69
CCOc1ccc(CCNC(=O)c2nn(C)c3c2CS(=O)(=O)c2ccccc2-3)cc1OCC | i | 1.2 | -0.6 | -6 | 0.0 | -12 | -22 | -4.7 | -4 | 0.65
Cc1cccc(CCNC(=O)CNS(=O)(=O)c2ccc3nc(C)sc3c2)c1 | i | 0.7 | -0.7 | 7 | -27 | -4 | -12 | -1.0 | -1 | 0.58
COc1cccc(CNC(=O)c2cccc(NC(=O)C3=C(C)OCCS3)c2)c1 | i | 5.3 | 0.5 | -21 | 5.7 | -6 | -18 | -6.4 | 4 | 0.77
O=C(CNC(=O)c1ccco1)Nc1ccc(N2CCCCCC2)cc1 | i | -0.2 | -2.4 | . | 5.1 | . | . | . | -4 | 0.66
COc1ccc(C2/C(=C(\O)c3ccc4c(c3)OCCO4)C(=O)C(=O)N2Cc2cccnc2)cc1 (centres undefined) | i | 9.7 | -1.4 | -5 | -1.7 | 2 | 18 | -5.3 | -3 | 0.71
CN(C(=O)/C=C/c1ccc(F)cc1)C1CCCCC1 | i | 7.3 | -2.0 | -2 | 2.6 | -24 | -25 | -3.6 | . | 0.65
c1ccc2c(c1)[nH]c1c(N3CCN(C4CCCCC4)CC3)ncnc12 | . | -138 | -0.3 | -7 | . | . | . | . | 2 | 0.67

A different layout for four compounds above.
Results follow in this order: FGF22 binding | UCH37 inh | Bfl-1 A1 inh | T cruzi inh | AF4-AF9 inh | rRNA inh HTS | rRNA inh HTS OD600 | rRNA inh HTS RFP | Beta apoptosis | E coli growth
> COc1cccc(CNC(=O)c2cccc(NC(=O)C3=C(C)OCCS3)c2)c1
  i | 5.3 | 0.5 | -21 | 5.7 | -6 | -18 | -6.4 | 4 | 0.77
> O=C(CNC(=O)c1ccco1)Nc1ccc(N2CCCCCC2)cc1
  i | -0.2 | -2.4 | . | 5.1 | . | . | . | -4 | 0.66
> COc1ccc(C2/C(=C(\O)c3ccc4c(c3)OCCO4)C(=O)C(=O)N2Cc2cccnc2)cc1 (centres undefined)
  i | 9.7 | -1.4 | -5 | -1.7 | 2 | 18 | -5.3 | -3 | 0.71
> CN(C(=O)/C=C/c1ccc(F)cc1)C1CCCCC1
  i | 7.3 | -2.0 | -2 | 2.6 | -24 | -25 | -3.6 | . | 0.65

Record cards, from the list above.
`Cc1ccc(-n2nnnc2-c2cnc3cc4c(cc3c2C)OCO4)cc1` reads FGF22 binding = .; UCH37 inh = -2.5; Bfl-1 A1 inh = -0.4; T cruzi inh = 5; AF4-AF9 inh = .; rRNA inh HTS = .; rRNA inh HTS OD600 = .; rRNA inh HTS RFP = .; Beta apoptosis = 0; E coli growth = 0.67
`O=C(CNC(=O)c1ccco1)Nc1ccc(N2CCCCCC2)cc1` reads FGF22 binding = i; UCH37 inh = -0.2; Bfl-1 A1 inh = -2.4; T cruzi inh = .; AF4-AF9 inh = 5.1; rRNA inh HTS = .; rRNA inh HTS OD600 = .; rRNA inh HTS RFP = .; Beta apoptosis = -4; E coli growth = 0.66

Compound activity: PubChem, several laboratories
